# Bioassay records (PubChem BioAssay)
# Mtb betalactam: beta-lactam sensitization of Mtb H37Rv. M. tuberculosis H37Rv growth with meropenem, percent inhibition; hits of this screen are not shown here. inhibition, % at 25 µM. 330,000 compounds, 0.27% hits. AID 434955;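 active means about 74% or more and at least 40 points above the plate without the antibiotic, then above 30% in a dose series; inconclusive means first-round hits that could not be retested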;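 further: growth measured after seven days incubation then overnight dye step; 0% = bacteria only wells and 100% = bacteria with antibiotic; twin plates without the antibiotic show which effects depend on it; some results filed as inactive read as strong as hits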
# RecA splice inh: inhibitors of M. tuberculosis RecA intein splicing. AID 2221. 290,000 compounds, 0.75% hits. cell-free RecA intein splicing, fluorescence. inhibition, %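 (about 9 µM by stock and volumes)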. P9WHJ3; in the data active means inhibition above about 30%; inconclusive means no clear call, values can overlap the other calls;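 further: 0% = vehicle wells and 100% = reference inhibitor control wells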
# Target sequence (P9WHJ3 whole entry, looked up, canonical isoform): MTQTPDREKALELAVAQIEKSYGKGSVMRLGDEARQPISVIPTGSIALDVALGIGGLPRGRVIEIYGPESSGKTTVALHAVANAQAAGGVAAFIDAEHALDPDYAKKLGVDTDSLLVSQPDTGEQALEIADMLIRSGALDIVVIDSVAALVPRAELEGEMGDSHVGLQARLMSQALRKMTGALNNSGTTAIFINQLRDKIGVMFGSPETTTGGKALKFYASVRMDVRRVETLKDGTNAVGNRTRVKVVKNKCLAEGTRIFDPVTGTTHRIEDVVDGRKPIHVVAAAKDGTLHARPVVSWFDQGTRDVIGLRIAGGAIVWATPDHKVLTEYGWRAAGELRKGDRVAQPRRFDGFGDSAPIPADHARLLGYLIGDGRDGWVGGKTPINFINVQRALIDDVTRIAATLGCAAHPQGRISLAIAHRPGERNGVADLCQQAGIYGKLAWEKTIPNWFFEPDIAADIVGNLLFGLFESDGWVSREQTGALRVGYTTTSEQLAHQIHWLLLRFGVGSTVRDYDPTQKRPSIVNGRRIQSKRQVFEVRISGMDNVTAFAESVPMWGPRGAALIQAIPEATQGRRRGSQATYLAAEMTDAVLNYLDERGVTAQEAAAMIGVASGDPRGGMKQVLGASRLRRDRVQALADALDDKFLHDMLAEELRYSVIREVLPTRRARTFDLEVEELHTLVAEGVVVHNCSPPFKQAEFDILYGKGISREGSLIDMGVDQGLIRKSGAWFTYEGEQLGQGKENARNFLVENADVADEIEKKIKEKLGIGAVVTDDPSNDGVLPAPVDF
# Arbovirus anti: arbovirus infection inhibition; arbovirus infection cell-based antiviral screen; inhibition, % at 10 µM; 200,000 compounds, 0.37% hits; AID 1251;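 active means inhibition from about 30%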;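 further: bluetongue infection of BSR cells; cell survival read as ATP light after 72 h; 0% = infected wells without compound and 100% = uninfected wells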
# YopH PTP inh: inhibitors of Yersinia enterocolitica YopH tyrosine phosphatase. fluorescence Ex485/Em525. inhibition, %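 (about 10 µM by stock and volumes)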. 140,000 compounds, 0.16% hits;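 active means inhibition of 50% or more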;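 further: controls were vehicle for no effect and minimum signal wells for full effect; inactives centre near -20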
# Mtb growth: M. tuberculosis H37Rv growth inhibitors, H37Rv strain (AID 1626) | M. tuberculosis H37Rv growth inhibition; higher % means a stronger effect | inhibition, % at 10 µM; hits with a dose series show IC50 in µM | 220,000 compounds, 0.95% hits;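 active means confirmed in a dose series; inconclusive means inhibition above 80% but not taken into the dose series; inactive means below 80% or under 30% at every dose of the series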;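 further: bacteria incubated seven days before Alamar blue readout; 0% = bacteria only wells and 100% = bacteria with antibiotic wells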
# Arbovirus anti repeat: recorded beside Arbovirus anti, whose call it bears; inhibition, %; measured here: 10K subset replicate screen; many hits read low in the repeat;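 first of two repeat runs on a subset; 0% = infected and 100% = uninfected wells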
# Active calls of the source: *; ? = inconclusive; . = no result given. Not all compounds are listed; count on the stated rates, not on these rows.
SMILES,Mtb betalactam,RecA splice inh,Arbovirus anti,YopH PTP inh,Mtb growth,others
CCCCc1nnc2c(N(C)S(=O)(=O)c3ccc(C)cc3)nc3ccccc3n12,-1,-5.5,.,.,-1%,
COc1ccc(C(=O)Nn2cnc3scc(-c4cccs4)c3c2=O)c(O)c1,-4,3.8,-3,-49,-7%,
O=C(Nc1ccccc1)c1ccc(CN2CCC(Cc3ccccc3)CC2)cc1,-12,-3.9,.,-32,-3%,
O=C(CN(c1ccc(F)cc1)S(=O)(=O)c1ccc2c(c1)OCCO2)Nc1ccccc1,14,2.2,9,-20,-1%,
COc1ccc(C(=O)N2CCN(C(=O)c3cc(OC)c(OC)c(OC)c3)CC2)cc1,-5,-2.6,18,-37,.,
COc1ccc(OCC(=O)N2CCc3ccccc3C2)cc1,-3,-2.1,.,.,.,
COc1ccc(CN2CC(C(=O)NCc3ccc4c(c3)OCO4)CC2=O)cc1 (centres undefined),-5,2.3,4,-8,-3%,
O=C(Cn1cnc2sc(-c3ccccc3)cc2c1=O)NCc1ccccc1,9,-5.6,-32,-12,-2%,
O=C(CSc1nc2[nH]c(=O)cc(O)c2s1)Nc1cc(Cl)cc(Cl)c1,9,2.4,.,.,.,
CCc1cc(=O)oc2c(C)c(OCC(=O)NCC3CCC(C(=O)O)CC3)ccc12 (centres undefined),-8,2.3,.,.,.,
Cn1c(=O)c(=O)n(C)c2cc(S(=O)(=O)NCCOc3ccccc3)ccc21,-5,-1.9,-5,.,-1%,
OCCOCCN1CCN(C(=S)Nc2ccccc2)CC1,4,-1.5,16,.,-9%,
Cn1c(COc2ccccc2)nnc1SCC(=O)NNC(=O)C1CCCCC1,7,-0.8,-3,.,-10%,
N#Cc1ccc(NC(=O)c2sc3cc(C(F)(F)F)cnc3c2-c2cccs2)cc1,-1,-2.0,4,6,10%,
Cc1ccc(NC(=O)CNC(=O)c2ccc(Br)o2)nc1,-11,-0.8,.,.,.,
Cc1c(C)n2c(SCC(=O)Nc3ccc4c(c3)OCCO4)nnc2[nH]c1=O,-4,-1.6,.,.,.,
COc1ccc(-n2c(Cc3cccn3C)nnc2SCC(=O)Nc2ccc(C)cc2)cc1,-1,4.7,3,-22,-5%,
CCc1cccc2c1NC(=O)C2(O)N1CCCC(C)C1 (centres undefined),1,-3.7,.,.,.,
CCOC(=O)c1c(C)[nH]c(N=Nc2cccc(C)c2)c1C,63,-2.9,12,2,0%,
Cc1ccc(S(=O)(=O)N2CC3CCCN3c3ccc(C(F)(F)F)cc32)cc1 (centres undefined),-4,1.0,-12,-35,-9%,
O=C(CNC(=O)N1CC(=O)Nc2ccccc21)NCc1ccccc1,-14,0.0,.,.,.,
Cc1ccc(O)c(C(=O)c2cnc3c(c2)COc2ccccc2-3)c1,93,19,16,18,-5%,
COc1ccc(NC(=S)N(Cc2ccc(Cl)cc2)Cc2ccc(C(=O)O)cc2)cc1Cl,10,12,8,.,61%,
O=C(COc1ccc2ccccc2c1)Nc1cccc(C(=O)Nc2ccccc2C(=O)O)c1,81,6.4,24,3,13%,
Cc1cc(C(=O)N/N=C/c2cccc(OC(=O)c3ccco3)c2)n[nH]1,-5,44*,12,-22,1%,

# Next section; it opens with the 7 that closed the last part.
SMILES,Mtb betalactam,RecA splice inh,Arbovirus anti,YopH PTP inh,Mtb growth,others
CCOC(=O)c1c(C)[nH]c(N=Nc2cccc(C)c2)c1C,63,-2.9,12,2,0%,
Cc1ccc(S(=O)(=O)N2CC3CCCN3c3ccc(C(F)(F)F)cc32)cc1 (centres undefined),-4,1.0,-12,-35,-9%,
O=C(CNC(=O)N1CC(=O)Nc2ccccc21)NCc1ccccc1,-14,0.0,.,.,.,
Cc1ccc(O)c(C(=O)c2cnc3c(c2)COc2ccccc2-3)c1,93,19,16,18,-5%,
COc1ccc(NC(=S)N(Cc2ccc(Cl)cc2)Cc2ccc(C(=O)O)cc2)cc1Cl,10,12,8,.,61%,
O=C(COc1ccc2ccccc2c1)Nc1cccc(C(=O)Nc2ccccc2C(=O)O)c1,81,6.4,24,3,13%,
Cc1cc(C(=O)N/N=C/c2cccc(OC(=O)c3ccco3)c2)n[nH]1,-5,44*,12,-22,1%,
c1ccc(-c2nnc(SCC3CCCCO3)nc2-c2ccccc2)cc1 (centres undefined),5,12,-4,.,12%,
COc1ccc(C(=O)NC(C)c2nc3ccccc3n2C)cc1OC (centres undefined),-6,3.2,-5,-43,-6%,
COc1ccc(NC(=S)N(CCC(C)C)C2CCN(C(C)=O)CC2)cc1,-1,-0.7,.,.,.,
CCOC(=O)c1c(NC(=O)Cc2ccccc2)sc2c1CCN(CC)C2,-1,-5.1,.,.,.,
CCC(C)NC(=O)C1CCCN(C(=O)NC2CCCCC2)C1 (centres undefined),-5,-1.6,1,-4,-9%,
CCc1ccc(C(=O)Nn2c(C)nc3ccccc3c2=O)cc1,26,-1.7,.,.,.,
CN(C)CCN1C(=O)C(=O)/C(=C(/O)c2ccc(OCc3ccccc3)cc2)C1c1ccncc1 (centres undefined),.,-1.3,-3,-29,-6%,
COc1ccccc1NC(=O)CSc1nnnn1-c1ccccc1F,-5,1.1,.,.,.,
O=C(NC(=O)N1CCN(c2cccc(Cl)c2)CC1)c1ccc(Cl)cc1,42,2.7,.,.,.,
O=C1NC2(CCCCC2)C(=O)N1/N=C/c1ccc(O)cc1O,-2,-4.2,6,1,-16%,
O=C(/C=C/c1ccc(S(=O)(=O)N2CCOCC2)cc1)NCCCn1ccnc1,-2,-0.5,5,.,-3%,
Cc1cc(Nc2cc(C(=O)O)ccc2C)n2ncnc2n1,-2,-2.5,2,-53,2%,Arbovirus anti repeat=5
Cc1cnnc2c1-c1no[n+]([O-])c1CC2,-14,-2.3,4,13,7%,
COc1ccc(NS(=O)(=O)c2c(C)n(C)c(=O)n(C)c2=O)cc1OC,-2,-0.6,1,-16,.,
O=C(NCCN1CCN(c2ccccc2)CC1)c1ccc2c(c1)[nH]c(=S)n1c3ccccc3nc21,-2,0.6,3,.,0%,
CCNc1nc(SCc2ccccc2)nc(N2CCOCC2)n1,-2,4.1,9,-15,11%,
C/C=C/C(=O)OCC(=O)Nc1ccc(SC(F)F)cc1,74,0.2,1,.,76%,
COc1ccc(-n2nc(C(=O)NCC(=O)N3CCN(C)CC3)c3ccccc3c2=O)cc1,3,-0.6,.,.,.,
CCn1cc(C(=O)NCCc2ccccc2)c(=O)c2cc(S(=O)(=O)N(C)C)ccc21,-10,-1.3,.,.,.,
C/C=N/NC(=O)CCNC(=O)c1ccccc1,-6,0.4,-2,-32,-1%,
O=C(COC(=O)CN1C(=O)NC2(CCCC2)C1=O)Nc1ccccc1C(F)(F)F,-7,1.2,.,.,.,
COc1ccc(/C=N\NC(=O)c2ccccc2F)cc1COc1ccc(F)cc1,-16,3.4,.,.,.,
COc1ccc(CCNC(=O)CNC(=O)c2ccccc2Br)cc1OC,5,1.7,.,.,.,
COc1ccccc1/C=C/C=N/n1c(-c2ccncc2)n[nH]c1=S,6,-1.9,9,-39,-1%,
CN(C)S(=O)(=O)c1cccc(NC(=O)CNCC2CCCCC2)c1,4,-0.4,1,.,-1%,

# (cont.)
SMILES,Mtb betalactam,RecA splice inh,Arbovirus anti,YopH PTP inh,Mtb growth,others
COc1ccc(O)c(C(=O)c2cnc3c(c2)c(=O)[nH]c(=O)n3C)c1,11,-4.0,0,-38,8%,
Cc1cc(=O)[nH]c2ccc(Cl)cc12,2,1.5,-8,-27,-1%,
Cc1ccc(SCC(=O)Nc2ccc3c(c2)OCCO3)cc1,27,0.0,1,-28,65%,
Cc1ccc(C(C)C)cc1S(=O)(=O)Nc1ccncc1,3,-4.2,.,.,.,
COc1ccc(C(=O)N2N=C(c3cccs3)CC2c2ccccc2O)cc1 (centres undefined),14,-1.2,.,.,.,
COc1ccc(C(CCNCc2ccccc2F)c2ccc(F)cc2)cc1 (centres undefined),16,7.9,-30,-34,18%,
COc1ccccc1OCCN1C(=O)S/C(=C\c2ccco2)C1=O,-3,2.9,-2,-13,1%,
Nn1cnn(Cc2ccccc2)c1=S,1,.,4,-26,1%,
CS(=O)(=O)N1CCN(c2ccc(NC(=O)c3ccc(Br)o3)cc2)CC1,-4,-2.9,-7,37,-2%,
COC(=O)c1cc(OC)c(OC)cc1NC(=O)Nc1ccccc1OC,?,4.9,3,-45,3%,
COc1ccc(/C=N\NC(=O)c2nn(C)cc2Cl)cc1CN1CCOCC1,0,-1.5,0,-23,-2%,
O=C(CSc1c2c(nc3cc(Cl)ccc13)CCCC2)NCc1ccco1,2,30*,9,10,0%,
COCC(C)NC(=O)c1cc(S(=O)(=O)N2CCCCC2)ccc1N1CCOCC1 (centres undefined),-4,-1.8,.,.,.,
COc1ccccc1C(=O)N1CCNC(=O)C1CC(=O)Nc1cccc(C)c1 (centres undefined),5,-4.0,3,-11,-1%,
NS(=O)(=O)c1ccc(NC(=S)N2CCN(c3cccc(Cl)c3)CC2)cc1,7,0.3,11,5,3%,
C(=N\N1CCN(Cc2cccc3ccccc23)CC1)/c1cccs1,0,4.4,.,.,6%,
O=C(NCCCCCCNC(=O)c1ccncc1)c1ccncc1,-3,-3.4,.,.,.,
Cc1ccc(/C([O-])=C(/C(=S)NCc2ccccc2)[n+]2cccc(CO)c2)cc1[N+](=O)[O-],.,.,-2,.,7%,
COc1ccc(C2=NOC(C(=O)NCc3ccccn3)C2)cc1 (centres undefined),5,.,-7,-22,1%,
COc1cccc(COc2ccc3c(C)c(Cc4ccccc4)c(=O)oc3c2)c1,11,4.5,.,-38,12%,
COc1ccc(CCNC(=O)CCOc2ccc(C(C)(C)C)cc2)cc1OC,-3,3.4,.,.,.,
CC(C)Oc1ccc(CCC(=O)NNC(=S)Nc2ccccc2)cc1,-8,-1.8,.,.,-2%,
CCN1CCN(CC2CC3C=CC2C3)CC1 (centres undefined),-2,-0.9,-10,-43,-3%,
CCC(=O)Nc1sc2c(c1C(N)=O)CCC2,.,-0.1,0,-44,-5%,
Cc1ccc(-c2nnc(N3CCN(c4ccccn4)CC3)c3ccccc23)cc1,93,1.0,-44,36,.,

# Going on with the list:
SMILES,Mtb betalactam,RecA splice inh,Arbovirus anti,YopH PTP inh,Mtb growth,others
S=C(NCCCN1CCOCC1)Nc1ccc(-c2nc3ccccc3[nH]2)cc1,-1,2.1,5,.,11%,
CCc1ccc(C2C(C(C)=O)=C(C(=O)OC)Nc3nnnn32)cc1 (centres undefined),-1,-0.4,-6,-15,-7%,
O=[N+]([O-])c1cc(NS(=O)(=O)c2ccc(Cl)nc2)ccc1Cl,2,-1.2,.,.,.,
Cc1ccc(OCCn2c(CCNC(=O)C(C)C)nc3ccccc32)cc1,8,4.1,5,-25,3%,
CN1CC(c2ccccc2)C2(SC(=S)N(Cc3ccco3)C2=O)C12C(=O)Nc1ccccc12 (centres undefined),71,9.2,-21,5,12%,
CCOc1ccc(-c2cc(C(=O)N3CCN(c4ccccn4)CC3)c3ccccc3n2)cc1,-4,-0.7,11,0,0%,
CN(Cc1nc2ccccc2n1C)C(=O)c1ccco1,-3,-0.7,.,.,.,
CCSc1nc2c(c(=O)[nH]c(=O)n2C)n1CC(O)COc1ccccc1 (centres undefined),-2,0.7,7,.,5%,
O=C(c1ccco1)N1CCc2[nH]nc(-c3ccc(Cl)cc3)c2C1,2,2.3,.,.,.,
CCOc1ccccc1CN1CCN(C/C=C/c2ccc(OC)cc2)CC1CCO (centres undefined),-1,1.6,-3,.,4%,
c1cncc(CNC2CCCCC2)c1,-6,-0.6,.,.,.,
CC(=O)Nc1ccc(NC(=O)CS(=O)(=O)c2cn(CC(=O)N3CCCC3)c3ccccc23)cc1,-3,3.8,.,.,.,
O=C(Oc1ccc([N+](=O)[O-])cc1)c1cncc(Br)c1,-3,22,-4,-30,10%,
O=C(NC(=S)N1CCN(c2ccccn2)CC1)c1ccco1,2,0.3,4,.,-1%,
N=C1C(=O)OCC1c1ccccc1NC(=O)CN1CCCCC1 (centres undefined),-4,-5.8,-1,-52,5%,
COc1ncccc1C(=O)NC1CCCc2c1cnn2-c1cc(C)cc(C)c1 (centres undefined),4,3.7,.,.,.,
CN(C)CP(=O)(O)CN(C)C=O,-3,.,3,-58,-14%,
CN(CC(=O)OCC(=O)Nc1ccccc1)S(=O)(=O)c1ccc(Cl)cc1,12,0.6,4,-17,-108%,
O=C(NCCc1nnc2ccc(SCC(=O)N3CCOCC3)nn12)c1ccccc1,-5,-2.3,.,.,.,
O=C(NC1CCCCC1)N1CCC(c2nc3ccc(Cl)cc3[nH]2)CC1,-8,-2.5,-30,-18,6%,
CCS(=O)(=O)N1CCC(C(=O)Nc2ccccc2OC)CC1,-12,2.4,.,.,.,
CCOC(=O)C1CCCN(C(=S)Nc2ccc(OC)cc2)C1 (centres undefined),2,-2.4,10,.,1%,
CCc1cc2c(-c3ccccc3)cc(=O)oc2cc1OC(C)C(=O)O (centres undefined),-2,1.5,.,.,.,
